# CDC25B CDK2 inh = human CDC25B-CDK2/CyclinA binding inhibition | P30305+P24941 | z-score (test concentration not listed) | AID 1259370 | 0.72% of 94,000 active | HTRF CDC25B-CDK2/CyclinA binding, anti-His/anti-Flag; stronger effect = higher value;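 also: score is relative to mean and SD of negative controls; strong numbers were not always called active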
# HIV TAR-Tat = HIV-1 TAR-Tat binding disruption | HIV-1 TAR RNA, Tat peptide displacement FRET; stronger effect = higher value | z-score (test concentration not listed) | 0.6% of 100,000 active | AID 1259389;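 also: score is relative to mean and SD of negative controls; some compounds called inactive have numbers as strong as hits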
# * marks the source's active call; other numbers are inactive results; . = not tested or not shown.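 The calls were made as follows: active = z-score from 3 up in half or more of its runs; inactive = the rest.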
SMILES,CDC25B CDK2 inh,HIV TAR-Tat
Cc1ccc(N2C(=O)c3cccnc3C2Nc2ccc(C)c(C)c2)cc1 (configuration not stated),-2.7,-1.3
CC1CN(C(=O)N2CCC(C(=O)NCC3CCCO3)CC2)c2ccccc2O1 (configuration not stated),.,0.72
O=C(O)CCC(=O)Nc1sc2c(c1C(=O)Nc1ccccc1)CCCCC2,-0.59,.
C[C@H]1O[C@@H](n2cc(F)c(=O)[nH]c2=O)[C@H](O)[C@@H]1O,-2,.
CCCCOc1ccc2c(=O)c(Oc3ccc(OC)cc3)coc2c1,-1,1.1
CN1C(=O)Cc2cc(S(=O)(=O)CCC(=O)Nc3cccc(Cl)c3)ccc21,.,0.52
Cc1cc(Nc2ccc(OCC(C)C)cc2)ncn1,-0.03,0.86
O=C(NCCO)C(=O)NC1CCCCC1,0.09,1.1
CCCCN(C1CCN(C)CC1)S(=O)(=O)c1csc(C(N)=O)c1,.,0.88
COCC(=O)Nc1c(C(=O)N2CCOCC2)oc2ccccc12,.,2.1
CCn1c(=O)c(SCC(=O)OC)nc2ccccc21,-2.6,0.36
C/C(=N\O)c1ccc2c(c1)CCC2,-1.1,.
CCn1ccc2cc(S(=O)(=O)N3CCCC(C(=O)N4CCN(C(=O)c5ccco5)CC4)C3)ccc21 (configuration not stated),.,0.93
Cc1cc(C)n(Cc2ccc(C(=O)NCc3ccc(C)o3)o2)n1,.,1.2
Nc1ccc(Oc2ccc3nc4c5cc(I)ccc5c5ccc(I)cc5c4nc3c2)cc1,1.2,.
NC(=O)C1CCCN(S(=O)(=O)c2cccs2)C1 (configuration not stated),-1.3,0.06
CN(C)c1ccc(C2C(C(=O)OC(C)(C)C)C(=O)CC(C)(O)C2C(=O)OC(C)(C)C)cc1 (configuration not stated),-0.67,-0.2
CC(C)c1nn2c(=O)cc(COC(=O)c3ccccc3F)nc2s1,.,1.9
Cc1cccc(-c2nc(CSc3nncn4c3cc3oc(C)cc34)c(C)o2)c1,.,-1.5
CCn1c(C(=O)NCC2CCCO2)c(N2CCCC2=O)c2cc(C)ccc21 (configuration not stated),.,1.3
Cc1ccc2nc3ccc(N4CCC(Cc5ccccc5)CC4)nn3c(=O)c2c1,-0.95,-0.01
Cc1ccc2c(c1)NC(SCC(=O)c1ccc(F)cc1)=NS2(=O)=O,.,2.6
CC1CN(C(=O)C2c3ccccc3Oc3ccccc32)CC(C)O1 (configuration not stated),-0.44,0.13
CCNC(=O)C(=O)NCc1ccco1,-0.24,1.2
COC(=O)C1=C(C)NC2=C(C(=O)CC(c3ccccc3Cl)C2)C1c1ccccc1OC (configuration not stated),-0.19,.
Cc1ccc(S(=O)(=O)N2c3ccccc3NC3=C(C(=O)CCC3)C2c2ccco2)cc1C (configuration not stated),.,-4
Cc1nc(C)c(C(=O)Nc2nnc(C3CCCCC3)s2)s1,-3.1,0.15
Nc1ccccc1C(=O)N/N=C/c1ccccc1O,-2.2,.
COc1ccc(S(=O)(=O)CC(=O)Nc2sc3c(c2C(N)=O)CCC3)cc1,.,-0.06
COC(=O)c1ccc(-c2nc(-c3ccc(OC)c(OC)c3)no2)cc1,1.3,0.18
O=C(CSc1ccccn1)Nc1ccc(C2CCCCC2)cc1,-4.2,.
COc1cccc(-n2c(/C=C/c3cn(C)c4ccccc34)nc3ccccc3c2=O)c1,-0.22,-1.4
CC1=C(C(=O)Nc2cccc(C)n2)C(c2ccc(Br)cc2)C2=C(CC(C)(C)CC2=O)N1 (configuration not stated),0.18,0.91
CC1(C(=O)Nc2ccc(Br)cc2)Cc2ccccc2C(=O)O1 (configuration not stated),-0.66,2.8
CCCC1O[C@@H]2C[C@H]3[C@@H]4CCC5=CC(=O)C=C[C@]5(C)[C@H]4[C@@H](O)C[C@]3(C)[C@]2(C(=O)CO)O1 (some centres not stated),-0.74,.
CCOc1ccc2nc(NC(=O)c3snnc3C)sc2c1,3.2,-1.4
COc1ccccc1N1C(=O)C2CC(C)=CC(C)C2C1=O (configuration not stated),-1.4,1.1
S=C1NCN(Cc2ccco2)CN1CCc1ccccc1,0.99,.
O=S(=O)(NCc1nc(-c2ccccc2)no1)c1ccc(F)cc1,-0.72,-0.91
CCCC(O)c1nc2ccccc2n1CCCc1ccccc1 (configuration not stated),-0.76,-0.26
COc1ccc(-c2onc(C)c2C)cc1S(=O)(=O)N(Cc1cccs1)C1CCCC1,.,0.72
Cc1nn(-c2cc(C(F)(F)F)ccc2Cl)c(=O)c2noc(C)c12,-1.9,.
CCc1nn(C(C)C(=O)NCCN(CC)CC)c(=O)c2cc3occc3n12 (configuration not stated),-0.22,1.5
CCOC(=O)c1c(S(=O)(=O)NCC(=O)NCc2cccs2)c(C)n(C)c1C,.,1.6
O=C(CSc1nnc(-c2ccco2)o1)NC1CCCCC1,-1.1,0.29
CN(C)CCN(Cc1cccs1)S(=O)(=O)c1csc(C(N)=O)c1,.,-0.04
O=C(Nc1nnc2n1CCS2)c1ccccc1,.,0.39
COc1ccc(-c2nc(C#N)c(NCc3ccccc3Cl)o2)cc1,0.3,1.9
Cn1c(=O)c2c(nc(CN3CCc4ccccc4C3)n2CC(N)=O)n(C)c1=O,-1.5,.
COc1cc(C2CC(=O)Nc3c2ccc2ccccc32)cc(Br)c1OC (configuration not stated),-1.5,0.05
O=C(O)CCc1ccc2c(c1)CCO2,-2,.
O=C(Cn1ncn2cccc2c1=O)N1CCOCC1,-2.1,1.6
O=C(c1ccc(-c2ccccc2)cc1)N1CCCC1c1cccs1 (configuration not stated),-0.89,1.6
O=C(CN1CCN(S(=O)(=O)c2ccc(Br)cc2)CC1)Nc1ccc2cn[nH]c2c1,-1.9,.
COc1cccc(-c2nc(SCc3cc(=O)n4oc(C)cc4n3)n[nH]2)c1,.,0.2
Clc1cc(C=Nc2cccnc2)c(Cl)s1,-0.26,.
CSc1nc(N)nc2sc(C(=O)c3ccc(Cl)cc3)c(N)c12,1.3,2.5
O=C1c2ccccc2C(Nc2ccc(Cl)cn2)N1Cc1ccccc1 (configuration not stated),-1.3,1.1
COC(=O)c1ccc(C2C(C#N)=C(N)Oc3n[nH]c(-c4ccc5c(c4)OCO5)c32)cc1 (configuration not stated),-1.1,1
CCS(=O)(=O)N1CCCc2ccc(NS(=O)(=O)Cc3ccccc3F)cc21,.,1.1
# Additional structures.
SMILES,CDC25B CDK2 inh,HIV TAR-Tat
Nc1sc(-c2ccccc2)cc1C(=O)O,-0.33,.
COC(=O)CSc1nnc(CSc2nc(C)cc(C)n2)n1-c1ccc(OC)cc1,-0.51,-0.37
c1ccc(-c2nnc3sc(-c4cccs4)nn23)cc1,-0.51,-1.3
O=C(CN1C2=NCCCN2c2ccccc21)c1ccc(Br)s1,-1.7,.
CCCCN(CCCC)S(=O)(=O)c1ccc2c(c1)oc(=O)n2C,-0.71,2.1
COCCCNS(=O)(=O)c1ccc(-c2ccc(=O)[nH]n2)o1,.,1.8
COC(=O)c1cc(=O)c2ccccc2[nH]1,-1.1,0.57
Cn1c(=O)c2c(nc(Sc3nc4ccccc4n3CC(=O)N3CCOCC3)n2C)n(C)c1=O,-1.6,.
CCOC(=O)c1noc2nc(C)nc(NCCC3=CCCCC3)c12,.,0.24
CC(=O)CC(O)c1ccncc1 (configuration not stated),0.35,.
CCCc1n(CC)c2ccccc2[n+]1CC(O)COC1CCCCC1 (configuration not stated),2.4,1.1
CCNC(=O)C(=O)NCc1n[nH]c(=O)c2ccccc12,.,0.91
Cc1cc(C)c(NC(=O)C(C)Sc2nc3ncccc3o2)c(C)c1 (configuration not stated),.,0.34
O=C(O)c1cccc(NC(=O)c2cccc(N3C(=O)c4ccc(C(=O)Nc5cccc(C(=O)O)c5)cc4C3=O)c2)c1,0.74,.
CC(=O)Nc1ccc2c(c1)sc(=O)n2C,.,1.5
CCOc1ccccc1Oc1c(C)oc2cc(O)ccc2c1=O,-1.4,0.7
CCOC(=O)N1CCC(NC(=O)c2cc(S(=O)(=O)N3CCCC3)cn2C)CC1,.,2.1
c1ccc(C2CN(Cc3ccco3)C(c3ccccc3)O2)cc1 (configuration not stated),-0.67,0.94
NC(=O)Cn1c(=O)n(Cc2cccs2)c(=O)c2cccnc21,-0.32,0.71
CC(C)C(=O)Nc1c2c(nc3c1CCC3)CCC2,-0.9,.
C=CCOc1ccc(C2c3c(oc4ccccc4c3=O)C(=O)N2c2ccc(C)cn2)cc1 (configuration not stated),-0.42,-0.12
Cc1ccc(=O)n(S(=O)(=O)c2ccc(F)cc2F)n1,-2.1,.
O=C(c1cccs1)N(Cc1cccs1)c1ccc(F)cc1,-0.09,1.5
Cc1noc(C)c1C(=O)Nc1ccc(Cl)cc1,1.3,.
CC(C)n1cc2c(c1-c1ccccc1Br)c(=O)n(C)c(=O)n2C,1.2,0.96
CCOC(=O)N1CCC(N2C(=O)c3ccccc3C2Nc2ccccc2F)CC1 (configuration not stated),0.41,1.3
O=C(O)C1CC2(COC(c3ccccc3)OC2)C1C(=O)O (configuration not stated),-0.66,.
Cc1cc(C(=O)NNc2ccc(F)cc2F)nn1C,-1.5,.
CCCNC(=O)CCc1c(C)nc2c3c(C)cc(C)nc3nn2c1C,-0.87,0.85
CNc1nc(Nc2ccc(Cl)cc2)c2cnn(C)c2n1,.,-0.07
Cc1ccc(NS(=O)(=O)c2ccc(-c3ccc(=O)[nH]n3)s2)c(Br)c1,.,0.32
CC(C)C(NC(=O)Nc1cccc(Cl)c1)c1nc2cccnc2n1C(C)C (configuration not stated),.,1.7
COc1ccc(NC2=NS(=O)(=O)C(c3ccc(C)c(C)c3)=C2C)cc1Cl,-2.3,0.77
CCOc1ccc(-n2c(SCC(=O)OC)nc3sc4c(c3c2=O)CCN(C)C4)cc1,2.5,-0.27
COc1ccc(-c2cc3ccccc3n2CC(O)CNCC2CCCO2)cc1 (configuration not stated),1.4,-1.7
CC(C)n1c(=O)c2c3c(sc2n(CCc2ccccc2)c1=O)COC(C)(C)C3,1.6,0.55
O=C1/C(=C\c2ccccn2)SC(=S)N1Cc1ccncc1,-1.2,.
CC1CCN(S(=O)(=O)c2cc(Br)cnc2N)CC1,-0.21,1.1
CCOC(=O)CSc1nnc(CSc2nc(C)cc(C)n2)n1C,0.47,-0.16
Cc1cc(C)cc(NC(=O)Nc2sc3nc4n(c(=O)c3c2C)CCC(C)CC4)c1 (configuration not stated),1.8,-0.28
Oc1ccccc1-c1nc(/C=C/c2cccs2)nn1-c1ccccc1,0.88,-1.1
CCCSCCCNC(=O)c1noc(C)c1Cn1nc(C)cc1C,.,-0.08
S=C1NCN(Cc2cccnc2)CN1,-0.8,.
O=c1c(Nc2ccc(F)cc2)c(-c2ccc(Cl)cc2)c1=O,.,-1.2
c1ccc(-c2ccsc2-c2ccccc2)cc1,1.2,.
CN(C)S(=O)(=O)c1ccc(NC(=O)CSc2nccn2C)cc1,0.05,-0.1
CSc1nc(-c2ccccc2Cl)nc2c1Cc1c(CO)cnc(C)c1O2,.,-2.1
CS(=O)(=O)NCCSc1nnnn1-c1ccccc1,-0.05,-0.65
COc1cc(NS(=O)(=O)c2ccc(-c3cc(C)no3)s2)cc(OC)c1,.,0.25
COc1cc(NC(=O)C2CCCN2S(=O)(=O)c2cccc3cccnc23)cc(OC)c1 (configuration not stated),-2.1,.
O=C(O)CCCC(=O)Nc1nccs1,-0.58,2.2
CN1C(=O)c2cc(NC(=O)C3CCCCC3)ccc2N2CCN=C12,.,1.9
NNC(=O)c1cccc(C(F)(F)F)n1,-0.53,.
O=C(O)CCCCCNC1CCS(=O)(=O)C1 (configuration not stated),-1,0.17
CC(C)NC(=O)C(=O)NCC(c1ccco1)S(=O)(=O)c1cccs1 (configuration not stated),.,2.5
O=c1[nH]c2ccc(NS(=O)(=O)c3ccc(C4CCCCC4)cc3)cc2[nH]1,-0.37,1
Cn1cc(S(=O)(=O)NCc2ccc3c(c2)OCO3)c(C(F)(F)F)n1,-0.64,.
COCCNc1nc2c(c(=O)n(Cc3ccc(F)cc3)c(=O)n2C)n1C,2.4,1.1
CC1CCN(S(=O)(=O)N2CCCC(C(=O)NCCCN3CCCC3=O)C2)CC1 (configuration not stated),.,-0.14
Cc1ccc2nc(NC(=O)Nc3cccs3)sc2c1,-1.3,-3.5
Cc1ccc(C)c(NS(=O)(=O)c2cccc3cccnc23)c1,-1.5,-1.7
Cc1cccc(C)c1OCc1cc(=O)n2c3c(sc2n1)CCCC3,-0.6,0.13

# Grouped by structure: those above with an aryl thioether with sulfur outside any ring
SMILES,CDC25B CDK2 inh,HIV TAR-Tat
CCn1c(=O)c(SCC(=O)OC)nc2ccccc21,-2.6,0.36
Cc1cccc(-c2nc(CSc3nncn4c3cc3oc(C)cc34)c(C)o2)c1,.,-1.5
O=C(CSc1ccccn1)Nc1ccc(C2CCCCC2)cc1,-4.2,.
O=C(CSc1nnc(-c2ccco2)o1)NC1CCCCC1,-1.1,0.29
COc1cccc(-c2nc(SCc3cc(=O)n4oc(C)cc4n3)n[nH]2)c1,.,0.2
CSc1nc(N)nc2sc(C(=O)c3ccc(Cl)cc3)c(N)c12,1.3,2.5
COC(=O)CSc1nnc(CSc2nc(C)cc(C)n2)n1-c1ccc(OC)cc1,-0.51,-0.37
Cn1c(=O)c2c(nc(Sc3nc4ccccc4n3CC(=O)N3CCOCC3)n2C)n(C)c1=O,-1.6,.
Cc1cc(C)c(NC(=O)C(C)Sc2nc3ncccc3o2)c(C)c1 (configuration not stated),.,0.34
CCOc1ccc(-n2c(SCC(=O)OC)nc3sc4c(c3c2=O)CCN(C)C4)cc1,2.5,-0.27
CCOC(=O)CSc1nnc(CSc2nc(C)cc(C)n2)n1C,0.47,-0.16
CN(C)S(=O)(=O)c1ccc(NC(=O)CSc2nccn2C)cc1,0.05,-0.1
CSc1nc(-c2ccccc2Cl)nc2c1Cc1c(CO)cnc(C)c1O2,.,-2.1
CS(=O)(=O)NCCSc1nnnn1-c1ccccc1,-0.05,-0.65

# Entries listed so far that have a cyano group (two):
SMILES,CDC25B CDK2 inh,HIV TAR-Tat
COc1ccc(-c2nc(C#N)c(NCc3ccccc3Cl)o2)cc1,0.3,1.9
COC(=O)c1ccc(C2C(C#N)=C(N)Oc3n[nH]c(-c4ccc5c(c4)OCO5)c32)cc1 (configuration not stated),-1.1,1

# Random draw from the library; any-hit rate near 0.9%.
